# Cruzain noTriton: cruzain (T. cruzi) inhibition without detergent | P25779 | AID 1476 | Potency, µM, inactives show max response, negative = inhibition, most hits filed as inhibitors | 200,000 compounds, 2.3% hits | purified cruzain, Z-FR-AMC fluorescence, no detergent;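 further: plate controls were enzyme without inhibitor for no effect and buffer without enzyme for full effect; nearly all actives have a fitted effect of over 40% in size; top concentration of the series not given in the record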
# Target sequence (P25779 123-467 limits assumed): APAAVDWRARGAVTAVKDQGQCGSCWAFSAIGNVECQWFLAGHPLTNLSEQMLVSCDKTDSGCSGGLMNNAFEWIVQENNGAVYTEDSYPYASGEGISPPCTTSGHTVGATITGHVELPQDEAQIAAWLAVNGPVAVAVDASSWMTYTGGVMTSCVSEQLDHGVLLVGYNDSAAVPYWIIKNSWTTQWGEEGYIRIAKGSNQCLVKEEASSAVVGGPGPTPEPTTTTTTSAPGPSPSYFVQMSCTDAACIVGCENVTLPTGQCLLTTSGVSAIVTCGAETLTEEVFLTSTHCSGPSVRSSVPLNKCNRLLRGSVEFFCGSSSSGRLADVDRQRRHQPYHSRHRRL
#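 Purified cruzain at 1.5 nM, pre-incubated 15 min with compound at room temperature in 100 mM sodium acetate pH 5.5, 5 mM DTT, 0.00005% Triton X-100. Reaction started with 2 uM Z-FR-AMC; AMC fluorescence increase over 60 s gives rate.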
# Cruzain inh Det: blocks cruzain activity in presence of Triton detergent; Potency, µM, inactives show max response, negative = inhibition, most hits filed as inhibitors; 200,000 compounds, 0.43% hits; purified cruzain, Z-FR-AMC fluorescence, 0.01% Triton; P25779;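 further: plate controls were neutral wells for no effect and buffer without enzyme for full effect; nearly all actives have a fitted effect of over 40% in size; top concentration of the series not given in the record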
#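 Cruzain (1.5 nM) preincubated 15 min at RT with compound in 100 mM sodium acetate pH 5.5, 5 mM DTT, 0.01% Triton X-100. Reaction started with 2 uM Z-FR-AMC; AMC fluorescence (ex 360/em 450 nm) change over 60 s gave rate.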
# The depositor's hits bear a star; ? = inconclusive; & = joins results of further samples. The call rests on the fitted dose curve; in most records, active means well fitted curve in the direction sought with a large enough effect; inconclusive means small, poorly fitted or top-dose-only effect, or another doubt; inactive means no such curve, though single readings can be large; an effect the other way counts as inactive or inconclusive. Potency means the concentration at half of the fitted maximal effect. These rows are one share of the data; the hit share may differ from the screen's.
# Every second line gives: Cruzain noTriton, Cruzain inh Det
> C[C@@H]1O[C@H](O[C@@H]2C=C3CC[C@H]4[C@@H](CC[C@]5(C)[C@@H](c6ccc(=O)oc6)CC[C@]45O)[C@@]3(C)CC2)[C@@H](O)[C@H](O)[C@@H]1O
 : 8%, -0.9%
> ClC=C(Cl)Cl
 : -1%, 3.7%
> C=C(C)C(=O)OCCCCCCCCCC
 : -9%, 2.5%
> CC(C)(C)OC=O
 : -7%, 1.3%
> COC(=O)C1=C(C)N(Cc2ccccc2)C(=O)N[C@@H]1c1ccccc1
 : -1%, 3.9%
> Cc1ccc(OP(=O)(Oc2ccc(C)cc2)Oc2ccc(C)cc2)cc1
 : -7%, 1.6%
> Cc1ccc(CC(Cc2nc3ccccc3[nH]2)c2nc3ccccc3[nH]2)cc1 (stereo not drawn)
 : 13%, -3.6%
> CCC1=C2CC[C@H]3C(=O)N(c4ccccc4)C(=O)[C@H]3[C@H]2[C@@]2(C)C(=O)N(Cc3ccccc3)C(=O)N2C1=O
 : 2%, -3.5%
> CCN(CC)CCCC(C)n1c(-c2ccccc2)nc2c(NCCOC)nc(C)nc21 (stereo not drawn)
 : -3%, 5.6%
> C=C/C1=C/Cc2ccccc2[C@H](C[N+](=O)[O-])C(C(C)=O)(C(=O)OC)C1 (stereo partly drawn)
 : -4%&9%, -2.2%&2.3%
> CCCCCCCC[N+](CCCCCCCC)(CCCCCCCC)CCCCCCCC
 : -16%, -11%
> Cc1cc2oc(=O)cc(-c3ccccc3)c2c(C)c1/C=C/c1ccc(F)cc1
 : ?, 0.0%
> CCCCCCCCCCCCCCCCCC(=O)OCC(C)O (stereo not drawn)
 : -4%, -1.0%
> CC1=C2C3OC(=O)[C@H](C)[C@H]3CC[C@@]2(C)C=CC1=O (stereo partly drawn)
 : -4%, 3.4%
> O=S(=O)(CCC(F)=C(F)F)c1nnnn1C1CCCCC1
 : -5%, 1.4%
> CN(C)CCO
 : -3%, 1.1%
> C=CCBr
 : -2%, 4.2%
> COC(=O)c1ccc(C(NC(=O)OCc2ccccc2)/C(=C/[C@@H](C)C(=O)NCc2ccccc2)c2cccnc2)cc1 (stereo partly drawn)
 : 9%, 4.4%
> CCC/C=C(\CCC)C(NP(=O)(c1ccccc1)c1ccccc1)c1ccccc1 (stereo not drawn)
 : -3%, -11%
> CCN1CCC[C@@H](OC(=O)C(c2ccccc2)c2ccccc2)C1
 : -16%, -2.0%
> OB(O)c1cc2ccccc2s1
 : -12%, -18%
> CC(=O)[O-].CC(=O)[O-].O.O.[Cd+2]
 : -20%, 5.9%
> COc1cccc([C@@H]2Oc3ccc(Br)cc3C(=O)[C@H]2OC(=O)Nc2ccc(C)c(Br)c2)c1
 : -13%, -2.2%
> C[C@@]12C=CC(=O)C=C1CC[C@H]1[C@H]3CC[C@](O)(C(=O)CO)[C@]3(C)CC(=O)[C@@H]12
 : -2%, -2.8%
> CC1CC(=O)O1 (stereo not drawn)
 : 5%, 0.3%
> CC(=O)O[C@H]1C(=O)[C@@]2(C)C([C@H](OC(=O)c3ccccc3)[C@]3(O)C[C@H](OC(=O)[C@H](O)[C@@H](NC(=O)c4ccccc4)c4ccccc4)C(C)=C1C3(C)C)[C@]1(OC(C)=O)CO[C@@H]1C[C@@H]2OC(=O)[C@H](C)NC(=O)c1ccc(-c2c3ccc(=O)cc-3oc3cc(O)ccc23)c(C(=O)O)c1 (stereo partly drawn)
 : 22%, -3.4%
> COc1ccc(/C=C/C(=O)c2cccs2)c(OC)c1
 : 4%, -2.8%
> CCOCC(=O)O
 : -4%, 6.1%
> CC(C)(C)OC(=O)NCCCCC1=CC2=CC(=O)C(C)(OC(=O)C3CCCC3)C(=O)C2=CO1 (stereo not drawn)
 : 2%, 2.6%
> Cc1ccc2ccccc2c1
 : 2%, 6.3%
> COC(=O)[C@@]1(Cc2ccc(OC)cc2)[C@H]2c3cc(C(=O)N4CCCC4)n(CCc4ccc(O)c(O)c4)c3C[C@H]2CN1C(=O)c1ccccc1
 : ?, -1.7%
> N#CCCS(=O)(=O)c1ccccc1
 : 5%, 6.6%
> CCC[C@@H]1C[C@@]1(CCC)C(NC(=O)c1ccccc1)c1cccc(Cl)c1 (stereo partly drawn)
 : -5%, -3.9%
> C=C(C)[C@]12C[C@@H](C)[C@@]34OC(Cc5ccccc5)(O[C@@H]1[C@@H]3C=C(COC(=O)Cc1cc(OC)c(O)cc1I)C[C@]1(O)C(=O)C(C)=C[C@@H]41)O2
 : -1%, -0.6%
> C=CCC(O)c1ccccc1 (stereo not drawn)
 : -8%, 0.1%
> COC(=O)[C@@]1(Cc2ccccc2)[C@H]2c3cc(C(=O)N(C)C)n(C[C@H](O)CO)c3C[C@H]2CN1C(=O)c1ccccc1
 : ?, -1.8%
> COC(=O)c1ccc(C(NC(=O)OCc2ccccc2)/C(C)=C/[C@@H](C)C(=O)NCc2cc(F)cc(F)c2)cc1 (stereo partly drawn)
 : 2%, -1.4%
> O=C(O)[C@H]1CN(C/C=C/P(=O)(O)O)CCN1
 : 9%, -3.7%
> COc1cccc([C@@H]2Oc3ccc(Br)cc3C(=O)[C@H]2OC(=O)NCc2ccco2)c1
 : -9%, -2.2%
> COC[C@H]1OC=C[C@@H](OC)[C@@H]1OC
 : 7%, -2.2%
> CC(C)C[C@@H](CC(=O)N[C@@H](CCC(=O)O)CC(=O)O)NC(=O)[C@@H]1CCCC[C@H]1NC(=O)C[C@H](CCCN)NC(=O)C[C@H](Cc1c[nH]c2ccccc12)NC(=O)[C@@H]1CNCC[C@H]1N
 : -1%, 2.4%
> CC(C)[C@@H](CC(=O)N[C@@H]1CCCC[C@H]1C(=O)N[C@H](CC(=O)N[C@@H](CCC(=O)O)CC(=O)O)Cc1c[nH]c2ccccc12)NC(=O)C[C@H](Cc1c[nH]c2ccccc12)NC(=O)[C@@H]1CNCC[C@H]1N
 : 15%, 2.9%
> COC(=O)[C@H](COC(C)(C)C)NC(=O)O[C@@H]1Cc2cc(Br)ccc2O[C@H]1c1cccc(OC)c1
 : 3%, 11%
> O=c1cc(-c2ccccc2)oc2cc(O[C@@H]3O[C@H](CO)[C@@H](O)[C@H](O)[C@H]3O)c(O)c(O)c12
 : 7%, -3.2%
> CC(=O)OC1C[C@H](O[C@@H]2C(O)C[C@H](O[C@@H]3C(O)C[C@@H](OC4CC[C@]5(C)C(CCC6C5CC(O)[C@@]5(C)C(C7=CC(=O)OC7)CC[C@@]65O)C4)OC3C)OC2C)O[C@H](C)[C@H]1O[C@H]1OC(CO)C(O)C(O)C1O (stereo partly drawn)
 : ?, 2.7%

# Next part.
SMILES	Cruzain noTriton	Cruzain inh Det
COCCN=C1OC(=O)N2C(=O)C3=C4C(C[C@H]5C(=O)N(c6ccccc6)C(=O)[C@H]5[C@H]4[C@@]12Cc1ccccc1)[C@H]1C(=O)N(c2ccccc2)C(=O)[C@H]1[C@H]3C (stereo partly drawn)	?	3.2%
C=C1C(=O)OC2C[C@@]3(C)CCCC(=C)[C@@H]3CC12 (stereo partly drawn)	2%	-1.6%
CC1(O)CCC(C(C)(C)O)CC1 (stereo not drawn)	1%	2.3%
FC(F)(F)c1ccc(Cl)cc1	-6%	-7.4%
C=CC[C@@](C(C)=O)(C(=O)OC)C(NC(=O)OC)c1ccccc1 (stereo partly drawn)	3%	0.7%
CC[C@H](C)[C@H](N)C1=N[C@H](C(=O)N[C@@H](CC(C)C)C(=O)N[C@@H](CCC(=O)O)C(=O)N[C@@H](C(=O)N[C@H]2CCCCNC(=O)[C@@H](CC(N)=O)NC(=O)[C@@H](CC(=O)O)NC(=O)[C@@H](Cc3cnc[nH]3)NC(=O)[C@@H](Cc3ccccc3)NC(=O)[C@@H]([C@@H](C)CC)NC(=O)[C@@H](CCCN)NC2=O)[C@@H](C)CC)CS1	?	-13%
CCCCCCCC(=O)OCCOC(=O)CCCCCCC	-5%	3.5%
COC(=O)c1ccc(C(NC(=O)OCc2ccccc2)/C(=C/[C@@H](C)C(=O)NCc2cccnc2)c2cccnc2)cc1 (stereo partly drawn)	2%	-1.0%
CC(C)C[C@@H](CC(=O)N[C@@H](CCCN)CC(=O)N[C@@H]1CCCC[C@H]1C(=O)N[C@H](CC(=O)N[C@@H](CCC(=O)O)CC(=O)O)CC(C)C)NC(=O)[C@@H]1CCCC[C@H]1N	?	7.0%
CC(C)[C@@H](CC(=O)N[C@@H]1CCCC[C@H]1C(=O)N[C@H](CC(=O)N[C@@H](CCC(=O)O)CC(=O)O)Cc1ccccc1)NC(=O)C[C@H](Cc1c[nH]c2ccccc12)NC(=O)[C@@H]1CNCC[C@H]1N	13%	1.4%
COC/C=C/C1=CC2=CC(=O)C(C)(OC(=O)c3ccc(Cl)nc3)C(=O)C2=CO1 (stereo not drawn)	0%	-4.9%
CCC[C@@H]1C[C@@H](C(=O)N[C@@H]([C@H]2O[C@H](SC)[C@H](O)[C@@H](O)[C@H]2O)[C@@H](C)O)N(C)C1	3%	3.1%
O=C(O)CCC/C=C\CC1C2CCC(O2)C1CNNC(=O)Nc1ccccc1 (stereo not drawn)	4%	4.4%
COc1ccc(C2/C=C\[C@H](O[Si](C)(C)C(C)(C)C)[C@H](C(C)C)CC(=O)N2Cc2ccccc2)cc1 (stereo partly drawn)	-16%	0.8%
CCC(=O)OC1(C)C(=O)C=C2C=C(CCCNC(=O)OC(C)(C)C)OC=C2C1=O (stereo not drawn)	2%	-3.1%
O=C(Cl)C(Cl)(Cl)Cl	1%	3.2%
Oc1c(Cl)ccc(Cl)c1Cl	-6%	3.5%
Cc1cc2c(cc1Cl)C(c1ccc3c(c1)OCO3)CC(=O)O2 (stereo not drawn)	-1%	0.1%
CCOC(=O)C1OC1c1ccccc1 (stereo not drawn)	3%	0.1%
CS(=O)(=O)c1ccc([C@H](O)[C@H](CO)NC(=O)C(Cl)Cl)cc1	3%	-0.2%
Cc1cccc(C2=N[C@@H](CC(C)C)CO2)c1	-3%	2.0%
C=C1CC[C@H](O)C/C1=C/C=C1\CCC[C@]2(C)[C@@H]([C@H](C)CC[C@@H](O)C(C)(C)O)CC[C@@H]12	8%	-1.4%
CCO	3%	6.2%
COc1cc(NC(=O)O[C@@H]2C(=O)c3cc(Br)ccc3O[C@H]2c2ccc3c(c2)OCO3)cc(OC)c1OC	-22%	-0.1%
COc1cc2c3cc1Oc1cc(ccc1O)C[C@@H]1c4c(cc(OC)c(O)c4Oc4cccc(c4)C[C@H]3N(C)CC2)CC[N+]1(C)C	-5%	1.1%
CC(O)COC(C)(C)C (stereo not drawn)	-3%	2.8%
C[C@@H]1C(=O)O[C@H]2[C@@H](O)[C@@]34[C@H]5CC(C(C)(C)C)[C@]36[C@@H](OC(=O)[C@@H]6O)O[C@@]4(C(=O)O5)[C@@]12O (stereo partly drawn)	-5%	-2.9%
COCC1=C2c3ccccc3[C@H](C[N+](=O)[O-])C(C(=O)OC)(C(=O)OC)CC2C2C(=O)N(c3ccccc3)C(=O)C2C1 (stereo partly drawn)	18%&20%	3.0%&2.2%
COCCOC(=O)c1ccccc1C(=O)OCCOC	1%	6.3%
CCCCC1=CC2=C(c3ccco3)C(=O)C(C)(OC(=O)c3ccc(OC)cc3)C(=O)C2=CO1 (stereo not drawn)	6%	5.0%
COC(=O)c1ccc(C(NC(=O)OCc2ccccc2)/C(=C/[C@@H](C)C(=O)NCc2cc(C)n(C)n2)c2cccnc2)cc1 (stereo partly drawn)	-9%	-5.8%
N#Cc1cccc(CS(=O)(=O)c2nc3ccccc3s2)c1	-6%	0.4%
Cc1cccc(-c2cccc(-c3cc(=O)oc4cc5c(cc34)OCO5)c2)c1	35µM*	-0.5%
C=CCC(C)(O)c1cccs1 (stereo not drawn)	-8%	1.2%
CCCCCCN(C(=O)CCCCCN1C(=O)NC(c2ccc3ccccc3c2)C(C(=O)OCc2ccccc2)=C1C)C(C(=O)NCCCC)c1ccc(OCC(=O)OC)c(C(=O)OC)c1 (stereo not drawn)	10%	-4.3%
Cc1nc(NCc2ccccc2)c2nc(-c3ccccc3)n(C3CCN(Cc4ccccc4)C3)c2n1 (stereo not drawn)	-10%	-3.4%
COc1cccc(CS(=O)(=O)c2nnnn2-c2ccccc2)c1	4%	4.4%

# Profiles from above. Values in the order: Cruzain noTriton | Cruzain inh Det
# COCC1=C2c3ccccc3[C@H](C[N+](=O)[O-])C(C(=O)OC)(C(=O)OC)CC2C2C(=O)N(c3ccccc3)C(=O)C2C1 (stereo partly drawn) is entered as 18%&20% | 3.0%&2.2%
# N#Cc1cccc(CS(=O)(=O)c2nc3ccccc3s2)c1 is entered as -6% | 0.4%
# CCCCC1=CC2=C(c3ccco3)C(=O)C(C)(OC(=O)c3ccc(OC)cc3)C(=O)C2=CO1 (stereo not drawn) is entered as 6% | 5.0%
# CCCCCCN(C(=O)CCCCCN1C(=O)NC(c2ccc3ccccc3c2)C(C(=O)OCc2ccccc2)=C1C)C(C(=O)NCCCC)c1ccc(OCC(=O)OC)c(C(=O)OC)c1 (stereo not drawn) is entered as 10% | -4.3%
# COC(=O)c1ccc(C(NC(=O)OCc2ccccc2)/C(=C/[C@@H](C)C(=O)NCc2cc(C)n(C)n2)c2cccnc2)cc1 (stereo partly drawn) is entered as -9% | -5.8%

# Bioassay records: PubChem BioAssay, National Center for Advancing Translational Sciences (NCATS)
